Assay outcomes as filed in PubChem.
FGF22 binding = binders of recombinant human FGF22 by thermal shift; hit rate 1.5% among 340,000; Q9HCT0; SYPRO orange fluorescence; percent of sucrose octasulfate shift, DMSO zero; calls only at 9.99 µM;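 active means melting point raised past a set limit in the mean and every replicate; inconclusive means no clear call; three in four hits are not shown here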
Target sequence (Q9HCT0 whole entry, looked up): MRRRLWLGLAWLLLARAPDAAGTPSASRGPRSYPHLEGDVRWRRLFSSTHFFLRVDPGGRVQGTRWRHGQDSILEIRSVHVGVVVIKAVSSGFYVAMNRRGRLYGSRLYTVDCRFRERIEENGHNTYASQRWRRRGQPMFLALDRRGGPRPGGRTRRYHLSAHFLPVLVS
ALR H2O2 inh = inhibitors of human sulfhydryl oxidase ALR. P55789. purified ALR, DTT oxidation, H2O2 HRP-luminol luminescence. hit rate 3.8% among 290,000. AID 485317. inhibition, % (no concentration beside the values);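 active means mean and each replicate at 75% or more; inconclusive means only one of the two met; inactive means neither met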;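 further: stock transfer was 7.5 nL into about 7.5 µL; 0% = neutral wells and 100% = wells with inactivated enzyme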
Target sequence (P55789 whole entry, looked up): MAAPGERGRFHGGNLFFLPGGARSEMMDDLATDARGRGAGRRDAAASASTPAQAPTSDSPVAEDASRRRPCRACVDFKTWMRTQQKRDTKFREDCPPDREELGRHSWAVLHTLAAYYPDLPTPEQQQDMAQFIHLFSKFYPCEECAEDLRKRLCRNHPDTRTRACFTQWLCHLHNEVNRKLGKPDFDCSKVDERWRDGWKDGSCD
Ecoli rRNA inh = inhibits bacterial ribosomal RNA function over humanized ribosomes. E. coli WT GFP vs humanized-ribosome RFP mutants, fluorescence, 24 h; stronger effect = lower value; DMSO median 0, no signal -100. GFP signal change (wild-type ribosome), % (no concentration beside the values). hit rate 1.6% among 350,000. AID 720706;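 active means significant combined selectivity score with lowered wild-type GFP, culture density cut under 30%, mutant RFP and density less affected; inactive means any of these conditions unmet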; further: one replicate is shown; some compounds called inactive have numbers as strong as hits
RanGTP-Impb inh = disruptors of Ran-importin-beta complex formation – biochemical, FRET, CFP-Ran, YFP-importin-beta, homogeneous, primary screen; inhibition, % (no concentration beside the values); hit rate 1.1% among 300,000; cell-free CFP-Ran/YFP-importin-beta FRET ratio; AID 2216;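 active means most replicates above 15%; inconclusive means exactly half above 15%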;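 further: 0% = DMSO wells and 100% = Ran loaded with GDP instead of GTP; wells of about 40 µL received 100 nL stock; the first replicate is given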
AF4-AF9 inh = MLL-AF4/AF9 protein interaction inhibition; inhibition, % at 10 µM; AID 651704; hit rate 0.47% among 350,000; AlphaScreen, biotin-AF4 peptide binding to FLAG-AF9;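 active means every replicate reaching a set inhibition limit, whatever the replicate mean, cut at about 25% in these data; inconclusive means mean inhibition reaches that limit but some replicates miss it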;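 further: 0% = plate neutral control median and 100% = total signal loss; the record names both 10 and 1 µM as test concentration; the first replicate is given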
Target sequence (P42568 whole entry, looked up): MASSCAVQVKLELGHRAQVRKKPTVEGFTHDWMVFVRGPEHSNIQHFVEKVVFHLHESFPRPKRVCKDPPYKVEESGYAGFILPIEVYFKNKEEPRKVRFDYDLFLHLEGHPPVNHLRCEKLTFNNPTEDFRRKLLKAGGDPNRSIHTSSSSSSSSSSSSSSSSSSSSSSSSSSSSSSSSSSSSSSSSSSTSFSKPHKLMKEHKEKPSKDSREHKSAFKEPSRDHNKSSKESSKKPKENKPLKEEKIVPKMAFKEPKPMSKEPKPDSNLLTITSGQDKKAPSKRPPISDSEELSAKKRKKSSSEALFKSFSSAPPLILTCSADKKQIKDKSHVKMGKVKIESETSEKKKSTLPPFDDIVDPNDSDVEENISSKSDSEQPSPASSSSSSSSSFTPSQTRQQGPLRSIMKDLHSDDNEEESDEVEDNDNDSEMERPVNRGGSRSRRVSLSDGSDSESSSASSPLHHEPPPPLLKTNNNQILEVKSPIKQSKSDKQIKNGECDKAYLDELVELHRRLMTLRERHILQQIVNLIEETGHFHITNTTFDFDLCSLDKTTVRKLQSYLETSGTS
T cruzi repl = T. cruzi replication inhibition. T. cruzi beta-gal in NIH3T3, luminescence, 90 h. inhibition, % (no concentration beside the values). hit rate 1.4% among 300,000;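 active means mean inhibition across valid replicates above about 55%, limit read from the data; inconclusive means mean below that limit but half or more replicates reach it; inactive means mean below it, under half of replicates reach it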;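 further: signal also drops with host cell toxicity which is not excluded here; 0% = plate median of DMSO wells and 100% = zero luminescence signal; higher percent means less beta-gal luminescence so fewer parasites; stock transfer was 50 nL into about 50 µL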
Beta apoptosis = blocks beta cell apoptosis; INS-1E cytokine-induced death, ATP luminescence, 48 h; percent of positive-control rescue, neutral wells zero; protection from apoptosis, % (concentration not given with the values); hit rate 0.8% among 300,000;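 active means all replicates at 75% or more, or half of them and the mean; inconclusive means half reach 75% but not the mean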;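 further: 0% = cytokine-treated negative control wells and 100% = positive control rescue; higher means more ATP so stronger rescue from cytokine killing; wells of about 40 µL received 100 nL stock; the first replicate is given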
Calb FLC = affects C. albicans growth with fluconazole; C. albicans CaCi-2 (fluconazole-resistant clinical isolate) + fluconazole, Alamar Blue growth, 48 h; growth inhibition, % (concentration not given with the values); hit rate 0.57% among 300,000;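 active means most replicates above 75%; inconclusive means exactly half above 75%; inactive means most below 75%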;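 further: all wells also contain fluconazole at 8 µg/ml as a sub-toxic cotreatment; 0% = median of DMSO wells and 100% = median of geldanamycin control wells; wells of about 8 µL received 7.5 nL stock; the first replicate is given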
Ecoli rRNA inh OD600 = recorded beside Ecoli rRNA inh, whose call it bears; OD600 change, %; measured here: OD600 growth;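 optical density of the mix in the first replicate; 0 = DMSO median and -100 = no signal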
Ecoli rRNA inh RFP = recorded beside Ecoli rRNA inh, whose call it bears; RFP signal change, %; measured here: RFP humanized mutant strains;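 first replicate; 0 = DMSO median and -100 = no signal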
Starred values were filed as active, the others as inactive; i = inactive; ? = inconclusive; nt = no result given; & = joins results of further samples; ! = not confirmed by another sample. A portion of the library. The share of hits here may be higher or lower than overall.

SMILES | FGF22 binding | ALR H2O2 inh | Ecoli rRNA inh | Ecoli rRNA inh OD600 | Ecoli rRNA inh RFP | RanGTP-Impb inh | AF4-AF9 inh | T cruzi repl | Beta apoptosis | Calb FLC
CCCCOc1cc(CC2CNC(=O)N2)ccc1OC (stereo not given) | i | -19 | 9 | 12 | 1.2 | 0.8 | -0.2 | 6 | 6 | nt
Cn1cccc1-c1cc(C(=O)N/N=C/c2ccccc2Cl)[nH]n1 | i | 22 | -22* | 6.1* | 7.8* | -4.3 | 12 | -7 | 3 | -1
CN1CCN(c2nnc(-c3cccs3)c3ccccc23)CC1 | nt | -14 | -11 | -5 | -2.3 | 1.0 | 4.4 | 12 | -2 | 24
CCOC(=O)c1ccc(NC(=O)CN2C(=O)CN(C(C)=O)C2=S)cc1 | i | 99* | 8 | 12 | -0.6 | 1.7 | -3.3 | 4 | nt | 9
COc1ccc(N(CC(=O)N2c3ccccc3CC2C)S(=O)(=O)c2c(C)nn(C)c2C)cc1 (stereo not given) | i | -10 | 0 | -21 | 0.1 | -0.3 | 4.2 | 3 | 2 | 2
CCCn1c(SCC(=O)N2CCOCC2)nnc1-c1ccncc1 | i | -14 | 5 | 11 | -2.4 | -3.0 | 1.2 | -9 | -5 | -3
COc1ccc(CNS(=O)(=O)c2ccc3c(c2)N(C(C)=O)CC(C)S3)cc1 (stereo not given) | i | -3 | -1 | -16 | 3.3 | -1.2 | 0.9 | 0 | 14 | -23
O=C(c1ccco1)N1CCN(S(=O)(=O)c2cccc([N+](=O)[O-])c2)CC1 | i | -13 | 18 | 16 | -1.9 | -3.7 | -0.4 | 7 | nt | -14
O=C(NCC1CCCO1)C1CC(=O)N(C2CCCCCC2)C1 (stereo not given) | nt | nt | nt | nt | nt | -0.2 | nt | -3 | -5 | 4
Cc1ccc(C)c(NC(=O)CCc2nnc3ccc(NCc4ccco4)nn23)c1 | i | 5 | 7 | 12 | -0.3 | 0.1 | 0.9 | -1 | 0 | -31
Cc1cc(C(=O)CSc2nnc(Cc3ccccc3)o2)c(C)n1Cc1ccc2c(c1)OCO2 | nt | 1 | nt | nt | nt | 2.5 | nt | 16 | 0 | -27
Cc1ccc(S(=O)(=O)NCc2ccccc2)cc1C(=O)NCC(C)(C)N1CCOCC1 | i | 0 | 16 | 16 | 2.4 | -1.7 | 5.2 | -3 | 3 | 0
CCCCn1c(=O)c(F)cn(Cc2ccc(OC)c([N+](=O)[O-])c2)c1=O | i | -7 | -5 | -11 | -0.6 | 3.7 | -5.8 | -6 | 5 | -12
CC(C)CCNCC(=O)NC(c1ccccc1)c1ccccc1 | i | nt | 10 | 8 | 3.1 | nt | 0.1 | nt | 0 | 115*
C#CCOCCOCCOCCNc1nc(OC)nc(N2CCN(C(=O)[C@H](CCC(=O)O)n3cc(C(N)CO)nn3)CC2)n1 (stereo not given in full) | i | 1 | 4 | 2 | 4.1 | nt | 1.1 | nt | -4 | nt
Cc1nc(NC(=O)CSC2=NCCS2)sc1C(=O)N(C)C | i | 99* | 2 | 10 | 6.1 | -0.4 | -2.1 | -3 | -15 | 8
O=C(NCCc1c[nH]c2ccccc12)c1cnc2sccn2c1=O | i | 21 | 4 | -2 | -0.7 | -1.2 | 3.1 | 1 | 8 | 1
COc1ccc(-c2cc(C(=O)Nc3cccc(Cl)c3)no2)cc1 | i | -26 | 4 | 16 | -1.6 | 0.6 | -0.4 | 1 | 4 | 2
COC(=O)c1ccccc1NS(=O)(=O)c1ccc2c(c1)oc(=O)n2C | i | -9 | -5 | -4 | -0.6 | -1.1 | -3.3 | 11 | -1 | 6
COc1ccc(C2c3c(-c4ccccc4O)n[nH]c3C(=O)N2CCc2ccc(OC)c(OC)c2)cc1 (stereo not given) | nt | 9 | nt | nt | nt | 0.1 | nt | 29 | 18 | 5
O=C(COc1ccc(S(=O)(=O)N2CCOCC2)cc1)Nc1ccc2c(c1)OCCO2 | i | -15 | 10 | 7 | 7.7 | 2.2 | 7.9 | -2 | 7 | 4
O=C(COc1cccc(Oc2ccccc2)c1)Nc1ncccn1 | nt | 2 | nt | nt | nt | ? | nt | -5 | 0 | 43
CCc1cccc(NC(=O)Cc2ccc(OC)c(OC)c2)c1 | i | -14 | nt | nt | nt | 0.2 | 4.3 | 2 | 0 | -40
COc1cc(C(C)=O)ccc1OCC(O)CNCC1(N2CCCCC2)CCCCC1 (stereo not given) | nt | 2 | nt | nt | nt | 4.3 | nt | 5 | -8 | 18
COc1cccc(CNC(=O)CCc2nc3cc(S(=O)(=O)N4CCOCC4)ccc3n2C)c1 | i | -8 | 0 | 14 | 2.1 | -3.6 | -15 | -2 | -7 | -3
Cc1cccc(NC(=O)c2ccc(NC(C)c3ccccc3)c([N+](=O)[O-])c2)n1 (stereo not given) | nt | 5 | -7 | -6 | -4.7 | -0.7 | -0.2 | 27 | 6 | 3
O=c1c2ccccc2nc(CSc2ncnc3nc[nH]c23)n1-c1cccc(C(F)(F)F)c1 | nt | -2 | nt | nt | nt | 5.4 | nt | 8 | 4 | 3
Cc1ccc(S(=O)(=O)CCC(=O)OCC(=O)N2CCN(c3ccccc3)CC2)cc1 | i | 45 | -4 | -1 | -0.8 | nt | -11 | -3 | -4 | -4
O=C(O)C1C(C(=O)O)C1(c1ccccc1)c1ccccc1 (stereo not given) | i | 0 | 11 | 9 | -0.5 | 3.6 | 0.3 | -17 | 0 | 0
CC1CCc2nc(NC(=O)C3CC3)sc2C1 (stereo not given) | nt | nt | nt | nt | nt | -0.3 | nt | 34 | 3 | 19
CC(CCc1ccccc1)NC(=O)c1cccc(F)c1 (stereo not given) | i | -3 | -3 | -3 | -0.5 | -1.0 | 1.4 | 2 | 5 | -15
CCn1c(O)c(N=NC(=O)CNC(=O)c2ccco2)c2ccccc21 | i | -8 | -1 | -1 | -2.4 | -0.4 | -1.5 | -2 | -2 | 1
O=S(=O)(Nc1cccnc1)c1cccs1 | nt | -13 | nt | nt | nt | -0.6 | nt | -1 | -4 | -6
CCn1cc(C(=O)Nc2ccc(C)c([N+](=O)[O-])c2)cn1 | nt | -6 | nt | nt | nt | -1.9 | nt | -23 | 2 | -10
Cc1ccc(S(=O)(=O)N(CC(=O)Nc2cccc(C)c2C)C(=O)N2CCN(C)CC2)cc1 | i | nt | 14 | 16 | 1.4 | -6.4 | -3.4 | 1 | nt | -3
N#CCCn1cc(C(=O)Nc2ccccn2)c(-c2ccccc2)n1 | i | -1 | -1 | 4 | -1.0 | 2.2 | 1.6 | ? | -2 | -7
CCOC(=O)Cn1cc(C(=O)c2cccs2)c2ccccc21 | nt | -1 | nt | nt | nt | 4.7 | nt | -5 | -2 | 18
O=P(Cc1ccccn1)(c1ccccc1)c1ccccc1 | i | -11 | 7 | 7 | -9.8 | 1.7 | 5.1 | -4 | 2 | 4
O=C(NCC1CCCO1)c1ccc2c(c1)N(Cc1ccccc1)CCS2 (stereo not given) | i | 99* | -17 | -28 | 1.1 | 3.8 | 2.4 | 0 | 3 | -2
Cc1c(CC(=O)N2CCN(C(=O)C3COc4ccccc4O3)CC2)c(=O)oc2cc(O)ccc12 (stereo not given) | i | 1 | 4 | -6 | -0.8 | 9.8 | -2.8 | 0 | 1 | -17
Fc1ccc(SCCc2ccncc2)cc1 | nt | -3&-6 | nt | nt | nt | -3.3&1.4 | nt | 68*! | -10&-35 | -6&7
COc1cc(/C=C(/C#N)c2ccc(F)cc2)ccc1OCc1ccc(C(=O)O)o1 | nt | 97* | nt | nt | nt | 3.3 | nt | -7 | -6 | 10
CC(=O)N1CCOCCOCCOCC1 | i | -14 | 19 | 12 | 1.6 | -1.8 | -0.4 | -8 | -4 | -4
O=S(=O)(c1ccccc1)N1CCN(C/C=C/c2ccccc2)CC1 | i | -3 | -27 | -22 | -2.5 | -0.2 | 7.1 | 1 | -2 | -4
COc1cccc(NC(=O)C2C3C=CC(C3)C2C(=O)O)c1 (stereo not given) | i | -5 | 12 | 13 | 2.8 | 1.7 | -2.1 | -5 | -9 | 11
COc1ccc(-c2nnc(Nc3ccc(OC)c(C(=O)N4CCCCC4)c3)c3ccccc23)cc1 | nt | nt | nt | nt | nt | 0.2 | nt | 14 | 0 | 14
COc1ccc(OC)c(N=CC2=C(O)CC(C)(C)CC2=O)c1 | nt | 30 | nt | nt | nt | -0.3 | nt | -7 | -1 | -9
COc1ccccc1C(C)N(C)Cc1nc(COc2ccccc2)no1 (stereo not given) | nt | -4 | 8 | 4 | 0.3 | 0.7 | -0.6 | -7 | nt | 23
Cc1cc(C)nc(N(C#N)Cc2ccc([N+](=O)[O-])cc2)n1 | i | -2 | 3 | 6 | 0.6 | 6.7 | 1.5 | -6 | -2 | 7
O=C(NC1CCCC1)c1cc2nc(-c3ccccc3)cc(-c3ccccc3)n2n1 | i | -6 | 11 | 7 | 0.3 | -0.2 | -30 | 12 | 22 | 4
CC12CCC(C/C1=N/NC(=O)Nc1ccccc1)C2(C)C (stereo not given) | i | -1 | 5 | -6 | -1.5 | 1.8 | 1.5 | 25 | 3 | -15
O=C(COC(=O)CNC(=O)c1ccc(Cl)cc1Cl)NC(=O)NCc1ccccc1 | i | nt | 2 | 14 | 0.1 | 0.2 | -7.0 | -8 | 2 | -2
Cc1c(OCC(=O)NC(Cc2c[nH]c3ccc(O)cc23)C(=O)O)ccc2c3c(c(=O)oc12)CCC3 (stereo not given) | i | -1 | 9 | 0 | -6.0 | -5.6 | -5.1 | -5 | -3 | 4
Cc1cc(C(=O)NNc2ccc(Cl)cc2)no1 | i | ? | nt | nt | nt | 2.4 | 0.2 | 37 | -7 | 103*
Cc1ccc(S(=O)(=O)N2CCCCC2)cc1C(=O)Nc1cccnc1 | i | -8 | 7 | -3 | -3.1 | -2.5 | 1.1 | -5 | -12 | -1
CCOC(=O)N1CCN(C(=O)/C(=C/c2ccc(Br)cc2)NC(=O)c2ccc(OC)cc2)CC1 | i | -3 | 4 | -3 | 1.0 | -1.4 | 4.4 | -3 | -1 | 10
COC(=O)c1sccc1NC(=O)CC1C(=O)NCCN1C(=O)c1ccccc1 (stereo not given) | i | -1 | 16 | 16 | 2.4 | 0.7 | -4.0 | -8 | 3 | 19
CC1(C)CN(c2ccccc2)N(C(=O)c2ccc(C#N)cc2)C1=O | nt | 85* | nt | nt | nt | 2.1 | nt | nt | -11 | 85*
Cc1ccc(S(=O)(=O)N2CCN(C(=O)Cn3c(=O)oc4ccccc43)CC2)cc1 | i | -8 | 4 | -2 | 1.9 | nt | -4.1 | nt | -2 | nt
CC(C)[C@H](NC(=O)c1ccccc1)C(=O)OCC(=O)Nc1ccc2c(c1)OCCO2 | i | -2 | -6 | -3 | 1.1 | 1.9 | -7.9 | -4 | -3 | 6
